High-throughput results deposited in PubChem BioAssay by several laboratories.
FGF22 binding: binders of recombinant human FGF22 by thermal shift. Q9HCT0. SYPRO orange fluorescence; percent of sucrose octasulfate shift, DMSO zero. calls only at 9.99 µM. 340,000 tested, 1.5% active;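 active = melting point raised past a set limit in the mean and every replicate; inconclusive = no clear call; three in four hits are not shown here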
B2AR ag: agonists of human beta-2 adrenergic receptor inducing internalization. P07550. Am2.2-beta2AR cells, FAP receptor internalization, flow cytometry; reference of the scale not given here. response, % (concentration not given with the values). 340,000 tested, 0.43% active;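 active = response above a set limit, near 3 SD of response in nonfluorescent compounds, cut at about 42% in these data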;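 note: stock transfer was 100 nL into about 11 µL; a reference agonist was the positive control; negative values mostly stem from fluorescent compounds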
Target sequence (P07550 whole entry, looked up): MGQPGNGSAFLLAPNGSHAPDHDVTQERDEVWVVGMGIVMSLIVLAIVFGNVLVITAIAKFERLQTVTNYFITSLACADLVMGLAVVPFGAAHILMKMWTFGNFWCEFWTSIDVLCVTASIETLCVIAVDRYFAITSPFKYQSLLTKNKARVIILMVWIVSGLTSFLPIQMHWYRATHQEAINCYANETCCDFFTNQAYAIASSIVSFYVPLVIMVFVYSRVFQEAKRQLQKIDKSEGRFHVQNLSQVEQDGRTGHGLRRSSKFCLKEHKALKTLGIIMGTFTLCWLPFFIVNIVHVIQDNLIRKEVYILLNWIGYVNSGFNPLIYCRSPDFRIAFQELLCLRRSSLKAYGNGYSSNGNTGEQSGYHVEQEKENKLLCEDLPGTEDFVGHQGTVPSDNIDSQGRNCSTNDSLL
E coli growth: E. coli growth inhibition; AID 1053175; 330,000 tested, 0.21% active; Escherichia coli growth, OD600, 23 h; stronger effect = lower value; OD600 absorbance (test concentration not listed);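 active = OD600 absorbance below the run mean of sample wells minus 3.6 SD, in any replicate, cut at about 0.56 in these data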;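 note: stock transfer was 300 nL into about 60 µL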
HNF4A DNA FP: change in binding of human HNF4 alpha to DNA. 360,000 tested, 0.3% active. HNF4a-FITC DNA binding, fluorescence polarization, 1 h. AID 1224865. P41235. activity change, % at 10 µM; in the data active = activity change above about 30%, passing the limit was not always enough;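 note: controls were the assay level and a saturating level of protein; the project sought stronger binding though the title names inhibitors; some compounds called inactive have numbers as strong as hits; positive values seem to mean higher polarization but the record does not say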
ALR H2O2 inh: human ALR oxidase inhibition via reduced H2O2 | P55789 | purified ALR, DTT oxidation, H2O2 HRP-luminol luminescence | inhibition, % (concentration not given with the values) | 290,000 tested, 3.8% active;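 active = mean and each replicate at 75% or more; inconclusive = only one of the two met; inactive = neither met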;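 note: stock transfer was 7.5 nL into about 7.5 µL; 0% = neutral wells and 100% = wells with inactivated enzyme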
Target sequence (P55789 whole entry, looked up): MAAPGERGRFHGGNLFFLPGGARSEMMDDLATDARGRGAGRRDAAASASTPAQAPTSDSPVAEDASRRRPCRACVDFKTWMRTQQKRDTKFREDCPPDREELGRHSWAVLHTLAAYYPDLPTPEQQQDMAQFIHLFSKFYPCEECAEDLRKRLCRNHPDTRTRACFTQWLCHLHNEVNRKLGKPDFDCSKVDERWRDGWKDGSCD
UCH37 DUB inh: human UCH37 deubiquitinating enzyme inhibition; Q9Y5K5; purified proteasome/UCH37, Ub-AMC cleavage fluorescence; inhibition, % (no concentration beside the values); 330,000 tested, 0.33% active; AID 588478;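 active = mean of two replicates above 20%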;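 note: 0% = compound-free wells with enzyme and 100% = wells lacking proteasome; stock transfer was 100 nL into about 20 µL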
Target sequence (Q9Y5K5 whole entry, looked up): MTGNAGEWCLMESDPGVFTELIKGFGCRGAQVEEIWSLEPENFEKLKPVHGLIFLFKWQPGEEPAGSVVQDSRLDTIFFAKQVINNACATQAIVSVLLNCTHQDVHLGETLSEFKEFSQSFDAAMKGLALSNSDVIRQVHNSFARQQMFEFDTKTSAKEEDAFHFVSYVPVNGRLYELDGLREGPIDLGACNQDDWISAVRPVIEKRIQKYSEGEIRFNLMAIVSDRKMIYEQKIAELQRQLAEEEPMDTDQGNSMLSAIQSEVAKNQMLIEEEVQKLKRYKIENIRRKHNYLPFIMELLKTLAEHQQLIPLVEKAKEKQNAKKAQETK
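assay system = human UCH37 enzyme supplied as purified proteasome complex | amount = proteasome at 0.15 nM in the dispensed enzyme solution | schedule = 30 min compound-proteasome preincubation then 25 min substrate reaction, room temperature | measured by = fluorescence, ex 355 nm, em 460 nm | benchmarks = no-proteasome wells (full inhibition) and compound-free wells (no inhibition)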
LANA-H2A inh: blocks KSHV LANA binding to histone H2A/H2B | inhibition, % (concentration not given with the values) | 320,000 tested, 0.6% active | Q9QR71 | AID 2629 | cell-free LANA-H2A/H2B peptide, fluorescence polarization; in the data active = inhibition mostly above about 10%, no sharp cut-off; inactive = mostly below about 6.7%;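 note: stock transfer was 7.5 nL into about 10 µL; 0% = median of vehicle wells and 100% = median of positive control wells; one replicate is shown; the record names a cut of 25% in any replicate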
Numbers without * were called inactive. A portion of the library; rates above refer to the full screens.

Screening Nc1c(S(=O)(=O)c2cccs2)c2nc3ccccc3nc2n1CCc1ccccc1 returned E coli growth 0.67, ALR H2O2 inh 17, UCH37 DUB inh -230 and LANA-H2A inh 5.2.
NC(=O)COc1ccccc1/C=C1/SC(=O)N(CC(=O)N2CCc3ccccc3C2)C1=O was read as FGF22 binding inactive, B2AR ag -2, E coli growth 0.64, HNF4A DNA FP 5.8, ALR H2O2 inh -1, UCH37 DUB inh 5.1 and LANA-H2A inh -0.3.
`CCOCCn1c(N2CCCC2)nc2c1c(=O)[nH]c(=O)n2C` gave FGF22 binding inactive, B2AR ag 4, E coli growth 0.67, HNF4A DNA FP 3.1, ALR H2O2 inh 9, UCH37 DUB inh 2.3 and LANA-H2A inh -1.5.
Screening Cc1nc2ccccc2n1CC(=O)OCC(=O)NC1CC1 returned FGF22 binding inactive, B2AR ag -10, E coli growth 0.72, HNF4A DNA FP -2.1, ALR H2O2 inh -4, UCH37 DUB inh 1.8 and LANA-H2A inh 2.7.
For CCNC(=O)N1c2ccc(OC)cc2C(C)=CC1(C)C the results were B2AR ag 5, E coli growth 0.64, HNF4A DNA FP -1.2, ALR H2O2 inh inconclusive, UCH37 DUB inh -43 and LANA-H2A inh -0.8.
COc1ccc(/C=C(\C#N)C(=O)Nc2cccnc2)cc1 was read as FGF22 binding inactive, B2AR ag -6, E coli growth 0.72, HNF4A DNA FP 4.5, ALR H2O2 inh -1, UCH37 DUB inh 5.7 and LANA-H2A inh -1.0.
CCOC(=O)C(Cc1ccccc1)NC(C)=O (stereo unspecified) was read as B2AR ag 5, E coli growth 0.72, HNF4A DNA FP -2.2, ALR H2O2 inh -8, UCH37 DUB inh 2.5 and LANA-H2A inh 1.1.
O=C(NCCN1CCOCC1)c1cccc(S(=O)(=O)N(Cc2ccccc2)c2ccccc2)c1 was read as FGF22 binding inactive, B2AR ag -13, E coli growth 0.7, HNF4A DNA FP -3.1, ALR H2O2 inh 6, UCH37 DUB inh 6.3 and LANA-H2A inh 2.7.
Screening Cc1cc2cc(CNC(=O)c3ccc(S(=O)(=O)N4CCOCC4)cc3)ccc2[nH]1 returned FGF22 binding inactive, B2AR ag -3, E coli growth 0.75, HNF4A DNA FP 0.3, ALR H2O2 inh -9, UCH37 DUB inh 2.3 and LANA-H2A inh -1.7.
COc1ccccc1NC(=O)NCc1nc(-c2ccc(C(F)(F)F)cc2)no1 was read as FGF22 binding inactive, B2AR ag 7, E coli growth 0.67, HNF4A DNA FP -3.2, ALR H2O2 inh -4, UCH37 DUB inh 6.2 and LANA-H2A inh 4.6.
For CCCCCCC(=O)Nc1nc(C)c(-c2csc(Nc3cc(OC)ccc3OC)n2)s1 the results were FGF22 binding inactive, B2AR ag 8, E coli growth 0.73, HNF4A DNA FP 6.1, ALR H2O2 inh -6, UCH37 DUB inh 0.3 and LANA-H2A inh 0.3.
`CCOC(=O)C(NC(=O)c1ccccc1)=C(C)C` gave FGF22 binding inactive, B2AR ag -12, E coli growth 0.71, HNF4A DNA FP 1.0, ALR H2O2 inh -4, UCH37 DUB inh 4.6 and LANA-H2A inh 2.0.
For CCN(CC(=O)Nc1ccc(NC(C)=O)cc1)C(=O)/C=C/c1ccccc1 the results were FGF22 binding inactive, B2AR ag -7, E coli growth 0.66, HNF4A DNA FP 1.5, ALR H2O2 inh -2, UCH37 DUB inh -1.5 and LANA-H2A inh 0.6.
COc1ccc(S(=O)(=O)NC(C)C(=O)N2CCCCCC2)cc1 (stereo unspecified) was read as FGF22 binding inactive, B2AR ag 0, E coli growth 0.65, HNF4A DNA FP 1.1, ALR H2O2 inh 19, UCH37 DUB inh 0.0 and LANA-H2A inh 0.5.
O=C(COc1ccc(C(=O)c2ccccc2)cc1)Nc1cccnc1 was read as FGF22 binding inactive, B2AR ag -13, E coli growth 0.64, HNF4A DNA FP 1.6, ALR H2O2 inh -3, UCH37 DUB inh 1.9 and LANA-H2A inh -1.8.
For Cc1c(Cl)cccc1NC(=O)C1Cc2ccccc2CN1C(=O)c1ccccc1 (stereo unspecified) the results were FGF22 binding inactive, B2AR ag 0, E coli growth 0.68, HNF4A DNA FP -0.9, UCH37 DUB inh 3.7 and LANA-H2A inh -0.3.
For CCOc1ccc(C2C(C#N)=C(N)Oc3cc(C)oc(=O)c32)cc1 (stereo unspecified) the results were FGF22 binding inactive, B2AR ag 10, E coli growth 0.68, HNF4A DNA FP 5.3, ALR H2O2 inh 27, UCH37 DUB inh -0.4 and LANA-H2A inh 2.1.
CC1CCN(C(=O)CCC(=O)Nc2nnc(C(F)(F)F)s2)CC1 was read as B2AR ag -5, E coli growth 0.7, HNF4A DNA FP -1.8, ALR H2O2 inh 2, UCH37 DUB inh -0.8 and LANA-H2A inh -2.9.
For COC(=O)[C@H](CCSC)NC(=O)Nc1ccc(OC)cc1OC the results were B2AR ag -9, E coli growth 0.71, HNF4A DNA FP -2.7, ALR H2O2 inh -2, UCH37 DUB inh 2.3 and LANA-H2A inh -1.8.
Screening Cc1c(C(=O)NCc2ccccn2)sc2nc(-c3ccc(F)cc3)cn12 returned B2AR ag -7, E coli growth 0.75, HNF4A DNA FP -2.8, ALR H2O2 inh -6, UCH37 DUB inh 0.0 and LANA-H2A inh -1.9.
Cc1nn(C(C)(C)C)c(OC(=O)c2ccc(Br)o2)c1Sc1ccccc1 was read as B2AR ag -3, E coli growth 0.73, HNF4A DNA FP -0.9, ALR H2O2 inh -4, UCH37 DUB inh 1.1 and LANA-H2A inh -14.
`C/C(=N\NC(=O)Cn1nc(C)c([N+](=O)[O-])c1C)c1ccc(Cl)s1` gave FGF22 binding inactive, B2AR ag -5, HNF4A DNA FP 0.1, ALR H2O2 inh -6 and LANA-H2A inh 7.0.
Screening N#Cc1ccc(/C=N/N=C(N)N)cc1 returned B2AR ag 13, HNF4A DNA FP 4.3, ALR H2O2 inh 5 and LANA-H2A inh -9.6.
Screening Cc1ccc(C)c(OCCC(=O)Nc2cccc(S(=O)(=O)N3CCCCC3)c2)c1 returned FGF22 binding inactive, B2AR ag -9, E coli growth 0.72, HNF4A DNA FP -1.3, ALR H2O2 inh -4, UCH37 DUB inh 1.7 and LANA-H2A inh 2.8.
`CCN(CC)c1nc(-c2ccccc2)cc(C(F)(F)F)c1C#N` gave B2AR ag 7, E coli growth 0.8, HNF4A DNA FP -4.8, ALR H2O2 inh -4, UCH37 DUB inh -88 and LANA-H2A inh -1.6.
`Cc1cccc(N2CCN(C(=O)CCn3c(=O)[nH]c4ccsc4c3=O)CC2C)c1` (stereo unspecified) gave FGF22 binding inactive, B2AR ag 19, E coli growth 0.64, HNF4A DNA FP 0.5, ALR H2O2 inh 99*, UCH37 DUB inh 4.3 and LANA-H2A inh 0.1.
`CCOC(=O)c1ccc(NC(=O)Nc2ccc3c4c(cccc24)C(=O)N3CC)cc1` gave B2AR ag 30, E coli growth 0.77, HNF4A DNA FP 68*, ALR H2O2 inh -16, UCH37 DUB inh 3.5 and LANA-H2A inh -6.5.
COC(=O)c1ccc(C2c3[nH]c4ccccc4c3C[C@H]3C(=O)N(C4CCN(Cc5ccccc5)CC4)CC(=O)N23)cc1 (stereo partly specified) was read as FGF22 binding inactive, B2AR ag 20, E coli growth 0.67, HNF4A DNA FP 4.7, ALR H2O2 inh -2, UCH37 DUB inh 0.6 and LANA-H2A inh 4.3.
Screening CCCc1nc2sc3c(c2c(=O)n1NC(=O)CCC(=O)OC)CCCC3 returned FGF22 binding inactive, B2AR ag 1, E coli growth 0.66, HNF4A DNA FP 1.4, UCH37 DUB inh -0.8 and LANA-H2A inh -0.7.
`CC(/C=N/n1c(-c2ccco2)n[nH]c1=S)=C\c1ccco1` gave B2AR ag -5, HNF4A DNA FP -7.0, ALR H2O2 inh 69 and LANA-H2A inh -3.6.
Screening COC(=O)c1cc(S(=O)(=O)NCC2CCN(CCc3ccc(OC)cc3)CC2)cn1C returned FGF22 binding inactive, B2AR ag -2, E coli growth 0.66, HNF4A DNA FP 0.5, ALR H2O2 inh -14, UCH37 DUB inh 0.5 and LANA-H2A inh 1.3.
Screening CC1CCCCN1C(=O)c1ccc(C(=O)N2CCCCC2C)cc1 (stereo unspecified) returned B2AR ag 7, E coli growth 0.73, HNF4A DNA FP -0.2, ALR H2O2 inh 0, UCH37 DUB inh 4.0 and LANA-H2A inh -2.9.
Cc1cc(C)c(O)c(-c2cc(C(=O)NCc3ccccc3)[nH]n2)c1 was read as B2AR ag -1, E coli growth 0.73, HNF4A DNA FP -0.8, ALR H2O2 inh 5, UCH37 DUB inh 2.5 and LANA-H2A inh -6.6.
`Cc1cc(NC(=O)CCN2CCN(Cc3ccccc3)CC2)ccc1Br` gave FGF22 binding inactive, B2AR ag 0, E coli growth 0.61, HNF4A DNA FP -1.1, ALR H2O2 inh -3, UCH37 DUB inh 1.9 and LANA-H2A inh -4.3.
COC(=O)Cn1ncc(N(C)Cc2ccccc2)c(Cl)c1=O was read as FGF22 binding inactive, B2AR ag -3, E coli growth 0.64, HNF4A DNA FP 0.4, ALR H2O2 inh 0, UCH37 DUB inh 5.0 and LANA-H2A inh 3.5.
For COC(=O)/C=C1\SC(=NC(=O)c2ccc(C)cc2)NC1=O the results were FGF22 binding inactive, B2AR ag 1, E coli growth 0.65, HNF4A DNA FP -3.8, UCH37 DUB inh 4.2 and LANA-H2A inh 1.7.
COC(=O)CCC(=O)OC1(C)C(=O)C2=CN(Cc3ccc(OC)cc3)C(c3ccc(OC)cc3)=CC2=C(Br)C1=O (stereo unspecified) was read as FGF22 binding inactive, B2AR ag -5, E coli growth 0.64, HNF4A DNA FP 6.8, ALR H2O2 inh -10, UCH37 DUB inh 1.3 and LANA-H2A inh -0.6.
`COC(=O)c1ccc(C(NC(=O)OCc2ccccc2)/C(C)=C/[C@@H](C)C(=O)NCc2ccc(-c3ccccc3)cc2)cc1` (stereo partly specified) gave B2AR ag 2, HNF4A DNA FP 0.8, ALR H2O2 inh -1, UCH37 DUB inh 0.9 and LANA-H2A inh 3.4.
`COc1ccc(CC(=O)Nc2nnc(C(C)C)s2)cc1OC` gave FGF22 binding inactive, B2AR ag -2, E coli growth 0.73, HNF4A DNA FP -1.1, ALR H2O2 inh -2, UCH37 DUB inh 0.3 and LANA-H2A inh -4.1.
Screening Cc1nn(CCCNC(=O)C2CCCO2)cc1Br (stereo unspecified) returned B2AR ag -4, E coli growth 0.64, HNF4A DNA FP 0.9, ALR H2O2 inh 5, UCH37 DUB inh 0.2 and LANA-H2A inh -3.9.
COc1ccccc1NC(=S)NC(NC(C)=O)C(Cl)(Cl)Cl (stereo unspecified) was read as FGF22 binding inactive, B2AR ag 17, E coli growth 0.68, HNF4A DNA FP 3.5, ALR H2O2 inh 0, UCH37 DUB inh 2.2 and LANA-H2A inh 1.3.
`C=CCn1c(SCC(=O)Nc2c(C)nn(Cc3ccccc3)c2C)nnc1C(O)c1ccccc1` (stereo unspecified) gave B2AR ag 7, E coli growth 0.64, HNF4A DNA FP -6.3, ALR H2O2 inh -1, UCH37 DUB inh -0.1 and LANA-H2A inh -0.1.
Cc1cc(C)cc(OCC(=O)N(Cc2ccc(N(C)C)cc2)C2CCS(=O)(=O)C2)c1 (stereo unspecified) was read as FGF22 binding inactive, B2AR ag 8, E coli growth 0.69, HNF4A DNA FP -1.6, ALR H2O2 inh 9, UCH37 DUB inh -0.2 and LANA-H2A inh -0.7.
`COc1ccc(NC(=O)Nc2ccc3c(c2)C(=O)N([C@H](C)CO)C[C@H](C)[C@@H](CN(C)S(=O)(=O)c2ccccc2)O3)cc1` gave FGF22 binding inactive, B2AR ag 0, HNF4A DNA FP -0.3, ALR H2O2 inh -6, UCH37 DUB inh 3.7 and LANA-H2A inh 4.4.
Screening COC(=O)c1c(NC(=O)CN2CCN(c3ccccc3Cl)CC2)sc(C)c1C returned B2AR ag 10, E coli growth 0.71, HNF4A DNA FP -1.0 and UCH37 DUB inh -0.8.
